Screening results (PubChem BioAssay)
Env fusion inh = inhibitors of HIV Env-mediated cell fusion. HeLa-JRFL Env/CEM21 cell fusion, luciferase. 1.1% of 360,000 active. inhibition, % at 12.3 µM;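 active means mean replicate inhibition score of at least 50 and every replicate individually at or above 50; inconclusive means only one of the two criteria met; inactive means mean below 50 and not all replicates reaching 50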;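 further: 0% = plate neutral controls and 100% = maraviroc near 300 nM; one replicate is shown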
Rce1 inh = yeast Ras-converting enzyme inhibition; calls only; 0.27% of 290,000 active; Q03530; yeast membranes, quenched prenylated peptide cleavage fluorescence; AID 2563;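 active means fall in fluorescence gain of 50% or more versus controls, with final raw signal at or below 3038400; inconclusive means same 50% fall but final raw signal above 3038400; inactive means fall in fluorescence gain under 50%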;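 further: plate controls were neutral control wells for no effect and wells lacking membranes for full effect; tested at 10 µM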
eIF4H FP inh = inhibitors of RNA binding by human eIF4H; 0.94% of 290,000 active; inhibition, % at 35 µM; eIF4H fluorescence polarization binding assay;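 active means 50% or more with normal probe brightness, or confirmed in later tests; inconclusive means above 50% with abnormal brightness, or retests that disagree; inactive means below 50% or failed in later tests; about a fifth of its hits are not listed in these tables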;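 further: calls also rest on retests at 20 µM and on dose response follow-up; 0% = protein and probe with vehicle and 100% = probe without protein; strong numbers were not always called active; many hits fall short of the cut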
UUG fidelity = modulators of start codon recognition fidelity in yeast; 0.13% of 350,000 active; S. cerevisiae UUG-firefly luciferase reporter, luminescence/redox ratio; activity score, % at 18.7 µM;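 active means replicate mean at a twofold rise or more, about +100% in these data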;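 further: firefly luciferase made from a UUG start codon reports start codon fidelity; reporter light over untreated wells divided by growth signal over untreated wells; some hits fall short of that in this replicate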
CSC inhib = cancer stem cell inhibition; cancer stem cell-like cells viability, luminescence; inhibition, % at 7.5 µM; 1.1% of 300,000 active; AID 2717;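 active means mean at 75% or more and at least half the replicates too; inconclusive means mean and replicates disagree; tested in HMLE shEcad cells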;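 further: 0% = median of negative and 100% = median of positive control wells; the first replicate is given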
PABP FP inh = blocks human PABP binding to poly(A) RNA | fluorescence polarization | inhibition, % at 35 µM | 1% of 290,000 active;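 active means 50% or more with normal probe brightness, or confirmed in later tests; inconclusive means above 50% with abnormal brightness, or retests that disagree; inactive means below 50% or failed in later tests; about a fifth of its hits are not listed in these tables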;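 further: calls also rest on retests at 20 µM and on dose response follow-up; controls were probe without protein and protein plus probe with vehicle; some compounds called inactive have numbers as strong as hits; many hits fall short of the cut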
Target sequence (P11940 whole entry, looked up): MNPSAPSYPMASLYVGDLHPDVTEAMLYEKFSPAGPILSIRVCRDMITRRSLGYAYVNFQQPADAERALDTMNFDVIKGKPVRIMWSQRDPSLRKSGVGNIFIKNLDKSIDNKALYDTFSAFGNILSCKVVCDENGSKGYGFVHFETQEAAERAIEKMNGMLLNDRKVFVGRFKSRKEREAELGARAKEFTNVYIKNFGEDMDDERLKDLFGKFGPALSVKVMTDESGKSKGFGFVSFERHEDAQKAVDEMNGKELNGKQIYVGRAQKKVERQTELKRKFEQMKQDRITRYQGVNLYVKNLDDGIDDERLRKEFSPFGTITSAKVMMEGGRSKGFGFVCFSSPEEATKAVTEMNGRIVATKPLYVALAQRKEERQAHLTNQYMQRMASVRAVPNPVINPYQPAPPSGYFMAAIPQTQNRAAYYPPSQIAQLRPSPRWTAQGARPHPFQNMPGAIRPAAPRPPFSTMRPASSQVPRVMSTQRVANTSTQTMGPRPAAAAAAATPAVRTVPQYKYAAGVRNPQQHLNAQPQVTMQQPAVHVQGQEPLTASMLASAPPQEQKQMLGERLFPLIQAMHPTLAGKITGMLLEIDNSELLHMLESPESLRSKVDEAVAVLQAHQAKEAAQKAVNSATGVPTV
MT1-MMP act inh = MT1-MMP (human) activation inhibition | HT1080 RFP-PRO-GFP cells, GFP/RFP ratio fluorescence, overnight; percent of plate control window, DMSO zero | GFP/RFP ratio change, % at 20 µM | 0.061% of 360,000 active | AID 651647;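 active means GFP/RFP ratio change of at least 30% with cell ATP level not reduced by more than half and red fluorescence within 50% of control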; further: strong numbers were not always called active
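Material – HT1080 RFP-PRO-GFP cells · Control set – DMSO wells and RFP-L50D-GFP cells · Incubation – overnight cell settling, then overnight compound exposure, 37 °C, 5% CO2 · Compound dosing – single-point 20 µM compound, 1% DMSO · Read-out – GFP/RFP fluorescence ratio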
eIF4H FP inh retest = also measured in eIF4H FP inh; calls as there; inhibition, %; compound at 20 µM; confirmation average;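 mean of two retest wells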
PABP FP inh retest = further read-out of PABP FP inh, marked with its call; inhibition, %; compound at 20 µM; confirmation repeats;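 mean of two retest wells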
MT1-MMP act inh RFP = also measured in MT1-MMP act inh; calls as there; RFP signal change, %; measured here: RFP expression control read;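 0 = vehicle wells; hits needed this value within 50% of zero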
* = called active by the depositor; i = inactive; ? = inconclusive; · = no result given; & = joins results of further samples.

SMILES	Env fusion inh	Rce1 inh	eIF4H FP inh	UUG fidelity	CSC inhib	PABP FP inh	MT1-MMP act inh	MT1-MMP act inh RFP	others
CCN(CC)C(=O)CSc1nnc(-c2ccc(F)cc2)n1N	·	i	-6	-4	-17	-7	4	2
CC1(c2ccco2)NC(=O)NC1=O (stereo unspecified)	·	i	2	-7	-2	-6	1	-4
Cc1nc2ccccc2n1/N=C/c1cccnc1	-48	i	-7	-14	-7	0	1	-1
COc1ccc(-c2noc(CSc3nc(-c4ccccc4)cc(=O)[nH]3)n2)cc1	·	i	-8	-6	15	35	5	3
CC12CC3(C)CC(C)(C1)CC(C(=O)NCC(=O)O)(C2)C3	3	i	6	·	-15	-1	-2	-1
CSCCC(=O)N1CCC(n2nccc2NC(=O)CCc2ccccc2)CC1	-1	i	1	-2	13	12	-1	0
O=C1CN(C(=O)c2ccccc2Cl)c2ccccc2N1	-1	i	-19	-13	-9	0	0	4
COc1ccc(-c2nc(C#N)c(NCCCN(C)C)o2)cc1OC	·	?	0	1	2	-2	0	-4
C/C(=N\NC(N)=O)c1cc(Cl)cc(Cl)c1O	-12	i	5	-8	-2	4	-1	5
N#CCSc1n[nH]c2nc3c(c(=O)n12)C1(CCCC1)Cc1ccccc1-3	·	i	5	13	22	8	1	-11
CSCCC(NC(=O)c1ccccc1Br)C(=O)N1CCCCCCC1 (stereo unspecified)	-2	i	·	1	8	·	-1	4
CCOC(=O)C1=C(C)Nc2nnnn2C1c1c[nH]c2ccccc12 (stereo unspecified)	11	i	-9	·	6	3	·	·
CCOC(=O)CC(=O)Nc1ccsc1C(N)=O	-13	i	-8	·	3	-3	-1	4
O=C(NCCNC(=O)c1cccnc1)c1ccc(Br)cc1	12	i	-2	-3	-4	1	3	8
O=C(c1cccs1)N1CCN(c2nnc(-c3ccccc3)c3ccccc23)CC1	35	i	-5	·	-22	-1	3	0
COc1cc(C(C[N+](=O)[O-])c2c(C)[nH]c3ccccc23)cc(OC)c1OC (stereo unspecified)	-34	i	-1	-1	-6	-5	4	1
O=C(COC(=O)Cc1ccc(Br)cc1)NC1CC1	-16	·	·	-10	-12	·	1	5
O=C(/C=C\c1ccc(-c2ccccc2)o1)c1ccccc1	-77	i	26	·	16	-3	-13	2
COc1cc(/C=C\C(=O)O)cc(S(=O)(=O)N2CCCCCC2)c1OC	·	i	8	0	·	4	-2	2
Cc1ccc(C(=O)Oc2ccccc2C(=O)N2CCOCC2)cc1	·	i	4	-4	6	2	-5	1

3 entries drawn at random from those above, as already listed:
SMILES	Env fusion inh	Rce1 inh	eIF4H FP inh	UUG fidelity	CSC inhib	PABP FP inh	MT1-MMP act inh	MT1-MMP act inh RFP	others
COc1cc(C(C[N+](=O)[O-])c2c(C)[nH]c3ccccc23)cc(OC)c1OC (stereo unspecified)	-34	i	-1	-1	-6	-5	4	1
Cc1ccc(C(=O)Oc2ccccc2C(=O)N2CCOCC2)cc1	·	i	4	-4	6	2	-5	1
O=C(c1cccs1)N1CCN(c2nnc(-c3ccccc3)c3ccccc23)CC1	35	i	-5	·	-22	-1	3	0

More results
SMILES	Env fusion inh	Rce1 inh	eIF4H FP inh	UUG fidelity	CSC inhib	PABP FP inh	MT1-MMP act inh	MT1-MMP act inh RFP	others
C/C(=C1/SC(N2CCCC2)=NC1=O)c1ccc(Br)cc1	·	i	-1	·	10	-7	-2	-4
Cc1cccc(C)c1-n1c(C)cc(/C=N/NC(=O)c2ccncc2)c1C	-13	i	-2	-5	-10	7	-2	4
COCCNC(=S)N1CCN(c2nc(-c3ccc(F)cc3)cs2)CC1	30	i	-1	-21	5	9	2	-1
Cc1cccc(NC(=O)c2nc[nH]c2C(=O)Nc2cccc(C)c2)c1	-6	i	2	·	4	-14	2	4
COc1ccc([C@H]2N[C@]3(CCCN(Cc4cccn4C)C3=O)[C@H]3C(=O)N(C)C(=O)[C@@H]23)cc1	4	·	·	-8	·	·	5	10
CCN1C(=O)[C@@H]2[C@@H](c3ccc(-c4ccc(Cl)c(Cl)c4)c(OC)c3)N3CCCC[C@@]3(C(=O)OC)[C@@H]2C1=O	2	i	·	-23	16	·	-6	-8
O=C1[C@@H]2[C@H](C(=O)N1n1cnnc1)[C@H]1C=C[C@@H]2C1	·	i	2	-9	·	-7	0	1
Cc1cc(C)nc(NS(=O)(=O)c2ccc(NC(=S)NC(=O)C(C)(C)C)cc2)n1	-37	i	-4	-11	-2	2	0	0
O=C(Cc1cccs1)N1CCN(S(=O)(=O)c2cc(Cl)ccc2Cl)CC1	-164	i	·	·	-16	·	0	3
COc1ccc(C2C(C(=O)OC(C)C)=C(C)N=c3s/c(=C\c4cccs4)c(=O)n32)cc1 (stereo unspecified)	·	i	43	-17	21	13	-2	-5
CCCOC(=O)c1ccc(NC(=O)CCC(=O)OCC)cc1	-19	i	6	13	·	3	-2	0
O=S(=O)(c1ccccc1)N1CCN=C1SCc1cccc(Cl)c1	28	i	6	·	4	1	-2	-2
O=C(CNC(c1ccccc1)c1ccccc1)Nc1ccccc1F	8	i	-10	-5	-14	2	·	·
Cc1ccc(Cn2c(C3CCCN3c3nc(-c4ccc(F)cc4)cs3)nc3cc(Cl)c(Cl)cc32)cc1 (stereo unspecified)	19	i	·	-8	47	·	-7	-9
Cc1ccc(S(=O)(=O)NN=Cc2ccco2)cc1	17	·	·	-13	·	·	0	-4
CN(C)C(CNC(=O)CCNS(=O)(=O)c1ccccc1C(F)(F)F)c1ccccc1 (stereo unspecified)	0	·	·	4	-26	·	-1	1
Cc1c(N(C)CS(=O)(=O)O)c(=O)n(-c2ccccc2)n1C	0	·	·	-14	-12	·	-1	4
Cc1nn(-c2ccccc2)c(N)c1C1(O)C(=O)N(C(C)C)c2ccccc21 (stereo unspecified)	-2	i	-1	·	1	-6	1	4
Cc1cc(C)cc(N(CCC#N)C(=O)CSc2nc3ccccc3c(=O)[nH]2)c1	23	·	·	-6	8	·	-8	-2
O=C(Nc1ccc(Cl)c(C(F)(F)F)c1)c1ccncc1	-1	i	0	-14	-8	6	-5	-9
O=C1C(=O)N(c2ccccn2)C(c2cccc([N+](=O)[O-])c2)/C1=C(/O)c1ccc(Br)cc1 (stereo unspecified)	-7	i	-4	-21	-9	3	-3	1
O=C(Nc1ccc(S(=O)(=O)Nc2ncccn2)cc1)c1ccc(F)c(S(=O)(=O)N2CCOCC2)c1	-5	i	7	8	-14	-10	-2	0
Cn1c(N)c(C(=O)CSc2nnc(Cc3cccs3)n2C2CC2)c(=O)n(C)c1=O	12	·	·	-4	·	·	0	-1
CCOCCn1c(CN(C)Cc2ccccc2)nc2c1c(=O)n(C)c(=O)n2C	·	i	-11	-5	·	-12	5	-3
O=C(NCC1CC1)c1csc([C@@H]2O[C@H](CO)[C@H](O)[C@H](O)[C@H]2O)n1	-11	·	·	-17	·	·	-1	5
COc1cc(C(=S)N2CCOCC2)cc(OC)c1OC(=O)c1ccc([N+](=O)[O-])cc1[N+](=O)[O-]	4	i	3	-18	-1	-7	4	-6
Cc1cc(NC(=O)CSc2ccc3ccccc3c2)no1	·	i	3	·	-6	4	1	5
O=C(C1CC(=O)N(c2ccc3c(c2)OCCO3)C1)N1CCN(S(=O)(=O)c2cccc(F)c2)CC1 (stereo unspecified)	11	·	·	-15	·	·	-2	-6
COc1ccc(Cl)cc1-c1nc(SCC(=O)NC2CCCC2)n[nH]1	28	·	·	-17	-6	·	-7	-6
C1CC1Cc1noc(CN2CCN(CC3CC3)CC2)n1	15	i	-10	·	-8	-4	4	-1
COc1ccnc(Oc2ccccc2)n1	-17	i	7	-12	-4	-12	-4	0
COc1cc(CN2CCC(CO)(CCOc3ccccc3)CC2)cc(OC)c1OC	-3	i	4	·	·	-6	0	2
CC1CCCC(C)N1C(=O)COC(=O)C1CCN(S(=O)(=O)c2ccc3c(c2)OCCO3)CC1 (stereo unspecified)	-170	i	·	-9	6	·	3	1
OC(COc1cccc(OCC(O)CN2CCOCC2)c1)CN1CCOCC1 (stereo unspecified)	-7	i	-2&3	-9&-10	-11&7	2&7	3&9	5&3
CC(NC(=O)NC1CCCCC1)C(c1cccs1)N1CCN(Cc2ccccc2)CC1 (stereo unspecified)	-55	i	-3	5	-6	-4	0	-1
O=C(COC(=O)c1ccc(Br)c(S(=O)(=O)N2CCOCC2)c1)NCCc1ccccc1	-1	·	·	-5	2	·	0	-5
O=C(Cc1cccc2ccccc12)N/N=C/c1ccncc1	15	i	-12	·	2	-6	4	-3
COc1ccccc1C1OC(c2cccc([N+](=O)[O-])c2)=NN1C(C)=O (stereo unspecified)	18	i	1	·	-15	-1	4	4
CN1CCCc2cc3c(C(F)(F)F)cc(=O)oc3nc21	4	i	?	-13	0	?	-14	-6
CN(C)c1ccc(N=C/C=C2/N(C)c3ccccc3C2(C)C)cc1	-120	i	-8	-28	·	-11	-12	29
Cc1ccc(OCC(=O)Nc2cc(-c3nn4c(C)nnc4s3)ccc2C)cc1	5	i	-1	10	5	-9	1	4
C#CC(C)(C)NC(=O)c1ccccc1OC	·	i	-5	-3	3	-5	-5	-3
CC(=O)NS(=O)(=O)c1ccc(NC(=O)c2cccc(OCc3c(C)noc3C)c2)cc1	-2	·	·	1	·	·	2	5
COc1ccc(S(=O)(=O)N(C)CC(=O)NC2CCCC2)cc1Cl	·	i	-5	-21	-15	-1	0	-3
Cc1ccc(NC(=S)N(CCN(C)C)Cc2cccs2)cc1	3	i	-10	-18	-5	66	-2	3	eIF4H FP inh retest=7;PABP FP inh retest=49
CCN(c1ccc(NC(=O)c2cccc(S(=O)(=O)N3CCN(C)CC3)c2)cc1)C(C)C	2	i	10	-8	2	-3	10	-8
COc1ccc(CCNC(=S)N2CCN(S(=O)(=O)c3ccc(Cl)cc3)CC2)cc1	-171	i	1	-15	-4	-4	1	1
Clc1cccc(Cl)c1CSc1cc2c(nn1)-c1ccccc1CC2	-44	i	-7	-11	19	5	-2	-3
CCn1ccc(C(=O)Nc2c(C)nn(Cc3c(F)c(F)c(F)c(F)c3F)c2C)n1	15	i	11	·	·	8	4	4
O=C(NC(C1CC1)C1CC1)C1CCC(=O)N(CCCN2CCCC2=O)C1 (stereo unspecified)	2	i	-9	4	-9	1	1	4
Next part:
SMILES	Env fusion inh	Rce1 inh	eIF4H FP inh	UUG fidelity	CSC inhib	PABP FP inh	MT1-MMP act inh	MT1-MMP act inh RFP	others
CCOC(=O)N1CCN(C(=O)COC(=O)Cc2ccc(OC)cc2)CC1	5	i	-7	-1	5	-4	-2	4
O=C(N1CCOCC1)C1(S(=O)(=O)c2ccccc2)CC=CC1	10	i	-9	-14	-8	-1	-2	2
Cc1ccc(NS(=O)(=O)c2ccc(Br)cc2)nc1	6	i	-6	-1	-2	2	2	3
CN(C)CCNc1ncnc2c1ncn2[C@H]1CN(Cc2ccc(-c3ccccc3)cc2)C[C@@H](CO)O1	-14	·	·	-10	·	·	0	-2
CN1C(=O)c2ccccc2C(C(=O)NCCCN2CCCC2)C1c1c[nH]c2ccccc12 (stereo unspecified)	·	i	-8	3	-4	-13	-1	0
Cc1nc(-c2ccc(NC(=O)/C=C\C(=O)O)cc2)cs1	10	i	-4	·	·	-1	2	2
COc1cc(/C=N/n2c(-c3ccc4c(c3)NC(=O)CO4)csc2=Nc2cccc(C)c2)ccc1O	·	i	0	-16	19	-1	-17	-15
O=C(CSc1ncc(C(F)(F)F)cc1Cl)N1CCN(S(=O)(=O)c2ccc3ccccc3c2)CC1	·	i	-6	·	-4	6	-2	-9
COc1ccc(C(=O)Nc2ccnn2C2CCN(Cc3ccc4nonc4c3)CC2)cc1	8	i	12	-14	-10	5	1	1
